# Bioassay records deposited in PubChem by Johns Hopkins Ion Channel Center.
# KCNQ2 block = KCNQ2 channel blockers in CHO-K1 cells – cell-based, FluxOR thallium flux, B-score, primary screen (AID 2156); O88943; 20 min; hits give low values; only compounds with negative scores are shown here; some inactives read as strong as hits; B-score at 10 µM; 310,000 tested, 1.1% active;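 active = fluorescence ratio B-score at most minus 3 library SDs, with starting brightness B-score within 2 library SDs, cut at about -5.5 in these data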
# Target sequence (O88943 whole entry, looked up): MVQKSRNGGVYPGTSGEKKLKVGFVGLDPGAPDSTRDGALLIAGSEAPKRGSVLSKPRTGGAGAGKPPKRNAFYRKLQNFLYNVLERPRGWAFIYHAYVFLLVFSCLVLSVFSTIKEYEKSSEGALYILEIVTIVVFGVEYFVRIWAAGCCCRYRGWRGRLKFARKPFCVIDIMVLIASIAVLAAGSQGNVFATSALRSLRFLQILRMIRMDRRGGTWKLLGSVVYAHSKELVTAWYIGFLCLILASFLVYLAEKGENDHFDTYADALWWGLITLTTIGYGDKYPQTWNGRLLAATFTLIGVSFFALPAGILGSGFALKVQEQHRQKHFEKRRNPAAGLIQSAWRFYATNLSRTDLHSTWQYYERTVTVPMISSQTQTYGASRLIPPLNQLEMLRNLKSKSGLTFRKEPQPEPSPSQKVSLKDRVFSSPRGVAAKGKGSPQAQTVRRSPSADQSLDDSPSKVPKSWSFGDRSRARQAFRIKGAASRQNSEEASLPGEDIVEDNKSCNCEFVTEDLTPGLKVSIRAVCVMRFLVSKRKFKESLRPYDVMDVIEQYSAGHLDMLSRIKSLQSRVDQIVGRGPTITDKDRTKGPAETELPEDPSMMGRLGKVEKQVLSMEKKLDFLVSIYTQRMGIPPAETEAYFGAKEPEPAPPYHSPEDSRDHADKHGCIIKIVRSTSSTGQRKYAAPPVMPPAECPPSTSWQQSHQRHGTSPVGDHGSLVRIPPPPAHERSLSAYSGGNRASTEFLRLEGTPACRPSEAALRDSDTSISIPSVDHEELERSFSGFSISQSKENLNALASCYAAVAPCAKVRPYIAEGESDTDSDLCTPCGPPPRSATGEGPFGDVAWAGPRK
# KCNQ2 block baseline = second read-out of KCNQ2 block, no call of its own (marks repeat the call); B-score; measured here: initial fluorescence intensity artifact check;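 brightness before thallium and not channel activity; 0 = typical well and far values either way flag optical interference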
# The depositor's hits bear a star; i = inactive.
SMILES,KCNQ2 block,KCNQ2 block baseline
COc1ccc(/C=C2\Oc3cc(OCC(=O)N4CCC[C@H]4C(=O)O)ccc3C2=O)c(OC)c1,i,2.9
O=C1c2oc3ccccc3c(=O)c2C(c2ccccn2)N1Cc1ccccc1 (configuration not stated),i,0.95
COc1cccc(-c2nc(CS(=O)(=O)CC(=O)NCc3ccccc3OC)c(C)o2)c1,i,-0.26
O=C(CSc1nc(O)cc(=O)n1-c1ccccc1)Nc1ccccn1,i,-1.3
COc1cc(/C=C/C(=O)OCC(=O)Nc2ccc(NC(C)=O)cc2)cc(S(=O)(=O)N2CCc3ccccc32)c1OC,i,0.69
CCCCCCc1ccc(-c2ncc(N)cn2)cc1,i,-2.3
CC(=O)c1ccc(NC(=O)c2cn(-c3ccccc3)nc2-c2ccncc2)cc1,i,-0.9
O=C(COC(=O)c1cc[n+]([O-])cc1)NCc1ccccc1Cl,i,-0.52
COc1cccc(CNC(=O)CCCn2ccc3cc(S(=O)(=O)N4CCCC4)ccc32)c1,i,0.61
CCOC(=O)c1ccc(Cn2c(-c3ccccc3)nnc2-c2ccccc2)o1,i,0.59
CCOC(=O)c1cc(C)[nH]c1C,i,0.29
CC(Sc1nnc(COc2ccccc2)n1Cc1ccccc1)C(=O)O (configuration not stated),i,0.43
COc1ccc(Br)cc1/C=N/NC(=O)CN1CCN(Cc2ccccc2)CC1,i,1.7
O=C(Nc1nnc(-c2ccccc2Cl)o1)c1nc2ccccc2s1,i,-1.5
CC(=O)Cc1cc(O)c2ccccc2c1OC(=O)c1ccccc1,i,-0.21
CCOC(=O)c1sc(-n2[nH]c(C)cc2=O)nc1C,i,-0.51
Cc1ccnc(Nc2nc(-c3ccc(F)cc3)cs2)c1,i,-0.26
CSc1ncccc1C(=O)OCC(=O)NC1CCS(=O)(=O)C1 (configuration not stated),i,0.09
COc1ccc(C2=NN(C(C)=O)C(c3ccccc3)C2)cc1 (configuration not stated),i,-0.64
O=C(O)CNS(=O)(=O)c1ccc(Br)s1,i,-0.43
O=C(c1ccccc1F)n1c2c(c3ccccc31)CCCC2,i,-0.59
CC(C)n1cnc2cc(NCc3ccco3)ccc21,i,0.09
O=C1CCCCCCC1Sc1ccccc1[N+](=O)[O-] (configuration not stated),i,1.1
Cc1cc([N+](=O)[O-])cc(C)c1OCC(=O)N/N=C/c1ccc(OC(=O)c2ccccc2Br)cc1,i,0.04
COc1ccccc1NC(=O)CSc1nnc(CC(=O)Nc2ccccc2F)n1C,i,0.71

# Brought forward from above: 2 entries, followed by the next part.
SMILES,KCNQ2 block,KCNQ2 block baseline
Cc1cc([N+](=O)[O-])cc(C)c1OCC(=O)N/N=C/c1ccc(OC(=O)c2ccccc2Br)cc1,i,0.04
COc1ccccc1NC(=O)CSc1nnc(CC(=O)Nc2ccccc2F)n1C,i,0.71
Cc1cccc2nc(CSc3nc4cc([N+](=O)[O-])ccc4s3)cn12,i,-0.2
COC(=O)[C@@]12CCCCN1[C@H](c1ccc(-c3ccc(C(C)=O)cc3)c(OC)c1)[C@@H]1C(=O)N(C)C(=O)[C@@H]12,i,0.87
CCOC(=O)C1CCCN(S(=O)(=O)c2ccc(S(=O)(=O)N(CC)CC)cc2)C1 (configuration not stated),i,-0.65
N#C/C(=C\c1ccccc1OCc1ccc(C(=O)O)cc1)C(=O)Nc1ccc(O)cc1,i,-1.1
O=C(CN(C(=O)CCC(=O)Nc1nccs1)c1cccc(F)c1)NCCc1ccccc1,i,-0.77
Cc1ccc(C(C(=O)NC2CCCCC2)N(C(=O)CCCC(=O)Nc2ccccn2)c2ccc3c(c2)OCCO3)cc1 (configuration not stated),i,0.09
COc1ccccc1C(C)NCC(=O)NC(=O)NCc1ccco1 (configuration not stated),i,1.7
CC(Sc1cccc[n+]1[O-])C(=O)Nc1cccc(S(=O)(=O)N2CCOCC2)c1 (configuration not stated),i,-1.6
O=C(CNc1ccccc1-c1ccccc1)NCc1ccccc1,i,0.59
O=C(C(=O)N1CCN(Cc2ccc3c(c2)OCO3)CC1)c1c[nH]c2ccccc12,i,0.04
Cc1ccc(-n2ncc(C(=O)Nc3ccc(Cl)cc3)c2C2CCNCC2)cc1C,i,0.91
CC1CCN(c2c(NCc3ccc(C(=O)N4c5ccccc5CC4C)cc3)c(=O)c2=O)CC1 (configuration not stated),i,1.3
COc1cccc(CSc2ccc(S(=O)(=O)N3CCOCC3)cc2C(=O)NCC2CCCO2)c1OC (configuration not stated),i,0.34
O=C(N/N=C1\C(=O)c2cccc3cccc1c23)c1ccc(O)cc1,i,0.27
Cc1ccc(C2CC(c3cccs3)=NN2S(=O)(=O)c2ccc(C)cc2)cc1 (configuration not stated),i,-0.65
COc1ccc(NC(=O)c2ccc(COCC(F)(F)C(F)F)cc2)cc1OC,i,1.3
COc1cc2c(cc1OC)C(SC)=NC(C)(C)C2,i,0.96
CC[C@@H](C)C(NC(=O)OC(C)(C)C)c1cn([C@@H](CCC(=O)OC(C)(C)C)C(=O)N2CCN(C(=O)OC(C)(C)C)CC2)nn1 (some centres not stated),i,-0.17
CC(C)CC1NC(=O)N(CC(=O)N2CCN(S(=O)(=O)c3ccc(Cl)cc3)CC2)C1=O (configuration not stated),i,0.43
COc1ccc(C(=O)OCC(=O)NC(C)CCc2ccccc2)cc1 (configuration not stated),i,2.5
Nc1nnnn1/N=C/c1ccccc1OCc1ccc(Cl)cc1,i,-0.39
Cc1nc2c(cnn2-c2ccccc2Cl)c(=O)n1-c1ccc(N2CCC(C)CC2)cc1,i,0.53
CC(=O)NCC1CCCN(C(=O)c2oc3c(F)cccc3c2C)C1 (configuration not stated),i,0.18
Nc1nonc1-n1nnc(C(=O)N/N=C/c2cccc(Cl)c2)c1CSc1ccccc1,i,-1.5
O=C(N1CCOCC1)N1CCN(S(=O)(=O)N2CCCCC2)CC1,i,-0.13

# 14 of the compounds above, with values ahead of the structure:
KCNQ2 block	KCNQ2 block baseline	structure
i	0.09	Cc1ccc(C(C(=O)NC2CCCCC2)N(C(=O)CCCC(=O)Nc2ccccn2)c2ccc3c(c2)OCCO3)cc1 (configuration not stated)
i	1.7	COc1ccccc1C(C)NCC(=O)NC(=O)NCc1ccco1 (configuration not stated)
i	-1.6	CC(Sc1cccc[n+]1[O-])C(=O)Nc1cccc(S(=O)(=O)N2CCOCC2)c1 (configuration not stated)
i	0.59	O=C(CNc1ccccc1-c1ccccc1)NCc1ccccc1
i	0.04	O=C(C(=O)N1CCN(Cc2ccc3c(c2)OCO3)CC1)c1c[nH]c2ccccc12
i	0.91	Cc1ccc(-n2ncc(C(=O)Nc3ccc(Cl)cc3)c2C2CCNCC2)cc1C
i	1.3	CC1CCN(c2c(NCc3ccc(C(=O)N4c5ccccc5CC4C)cc3)c(=O)c2=O)CC1 (configuration not stated)
i	0.34	COc1cccc(CSc2ccc(S(=O)(=O)N3CCOCC3)cc2C(=O)NCC2CCCO2)c1OC (configuration not stated)
i	0.27	O=C(N/N=C1\C(=O)c2cccc3cccc1c23)c1ccc(O)cc1
i	-0.65	Cc1ccc(C2CC(c3cccs3)=NN2S(=O)(=O)c2ccc(C)cc2)cc1 (configuration not stated)
i	1.3	COc1ccc(NC(=O)c2ccc(COCC(F)(F)C(F)F)cc2)cc1OC
i	0.96	COc1cc2c(cc1OC)C(SC)=NC(C)(C)C2
i	-0.17	CC[C@@H](C)C(NC(=O)OC(C)(C)C)c1cn([C@@H](CCC(=O)OC(C)(C)C)C(=O)N2CCN(C(=O)OC(C)(C)C)CC2)nn1 (some centres not stated)
i	0.43	CC(C)CC1NC(=O)N(CC(=O)N2CCN(S(=O)(=O)c3ccc(Cl)cc3)CC2)C1=O (configuration not stated)

# More entries
SMILES,KCNQ2 block,KCNQ2 block baseline
Cc1oc(-c2ccccc2F)nc1CSCC(=O)NCc1ccc2c(c1)OCO2,i,0.09
Cc1ccc(S(=O)(=O)N2CCCC2C(=O)N2CCCCCC2)cc1 (configuration not stated),i,0.51
CC(C)N(C(=O)Cn1cc(S(=O)(=O)CC(=O)N2CCOCC2)c2ccccc21)C(C)C,i,-1.6
O=C1NC2=C(CCc3ccccc32)C(c2ccccc2)N1 (configuration not stated),i,-0.08
COc1ccc(COC(=O)c2c(C)nn(-c3ccccc3)c2Cl)cc1,i,0.02
OC(CNCCc1ccc(Cl)cc1)COc1cc(Cl)ccc1Cl (configuration not stated),i,-2.2
CCCn1c(SCC(=O)NC2CCCC2)nc2c1c(=O)n(C)c(=O)n2C,i,-0.46
COc1cc(Cl)c(C)cc1NC(=O)COC(=O)C(NS(=O)(=O)c1ccc(Cl)cc1)C(C)O (configuration not stated),i,1.4
COc1cccc(Nc2nc3ccccc3nc2NS(=O)(=O)c2ccc(NC(C)=O)cc2)c1,i,-0.72
CN(CC(=O)Nc1ccccc1Oc1ccccc1)Cc1ccccc1F,i,-1.3
O=C(Nc1cc(Cl)ccc1N1CCCC1)C1=NN(c2ccccc2)C(=O)CC1,i,-0.08
O/N=C(/c1ccc(Cl)cc1)C1CC1c1ccccc1 (configuration not stated),i,-1.9
CCCn1c(=O)c2[nH]cnc2n(-c2ccccc2C)c1=O,i,-0.82
Cc1ccc(-c2nn(-c3ccccc3)cc2C(=O)O)o1,i,-0.77
CCOC(=O)C(C(=O)N(C)Cc1ccccc1)C1CCCCC1 (configuration not stated),i,-2.6
CCOP1(=O)C=C(C(C)(C)C)OC1c1ccc(F)cc1 (configuration not stated),i,0.14
NC(=O)C1(N2CCCCC2)CCN(Cc2ccccc2Cl)CC1,i,-1.8
O=C(NNC1=NCCC1)c1cccc(S(=O)(=O)N2CCCC2)c1,i,-1.7
Cc1cc(C)c(NC(=O)CS(=O)CC(=O)NCCCc2ccccc2)c(C)c1 (configuration not stated),i,-0.93
O=C1C=C(NCc2ccc(Cl)cc2Cl)C2(CCCCC2)O1,i,0.01
CCCCCc1nnc(NC(=O)CN2C(=O)C3CCCCC3C2=O)s1 (configuration not stated),i,-0.4
CN(C)CCNC(=O)Cn1nc(-c2ccc(Cl)cc2)ccc1=O,i,1.6
COc1cc(/C=C2\SC(=Nc3ccc(Cl)c(C(=O)O)c3)NC2=O)c(Br)c(Br)c1O,i,13
O=C(N1CCC(O)(c2cccnc2)CC1)C12CC3CC(CC(C3)C1)C2,i,2.2
COc1ccc([N+](=O)[O-])cc1N(CC(O)CN1CCCCC1)S(=O)(=O)c1ccccc1 (configuration not stated),i,-0.23
SMILES,KCNQ2 block,KCNQ2 block baseline
COc1cccc(C(=O)Nc2ccc(NC(=O)C3C4C=CC(C4)C3C(=O)O)cc2)c1 (configuration not stated),i,1.2
O=C(C1=C(O)C(=O)N(CCN2CCOCC2)C1c1cccc(F)c1)c1cc2ccccc2o1 (configuration not stated),i,3.5
Brc1ccccc1-c1csnn1,i,0.23
Cc1ccc(C)c(C(=O)CCC(=O)Nc2cccnc2)c1,i,0.68
O=C(OCC(=O)N1CCN(c2ccccc2)CC1)c1ccc(O)cc1O,i,-0.68
OCCNc1nc(C2CC2)nc2c1nnn2Cc1ccccc1Cl,i,-0.05
Cn1c(-c2c(N)n(-c3ccccc3)c3nc4ccccc4nc23)nc2ccccc21,i,-2.4
O=C(NC(=S)NNC(=O)c1ccccc1O)c1ccccc1,i,-0.52
N=C1C(c2ccccc2)=C(O)CN1c1cccc(S(=O)(=O)N2CCOCC2)c1,i,0.57
Cc1c(NC(=O)CSc2ncnc3ccccc23)c(=O)n(-c2ccccc2)n1C,i,0.56
COc1ccc(S(=O)(=O)N2CCC(C(=O)NCCc3ccc4c(c3)OCO4)CC2)cc1,i,-1.2
COc1ccc(C(=O)C2CCCN(Cc3cccc4c3OCO4)C2)cc1OC (configuration not stated),i,3
Cn1c(=O)cc(SCC(=O)N2CCN(c3ccccn3)CC2)c2ccccc21,i,-0.07
CCN(CC)CCC#CC(O)(c1ccccc1)C1CCCCC1 (configuration not stated),i,0.12
Cn1cc(S(=O)(=O)NCc2ccco2)c(=O)n(C)c1=O,i,0.49
CC(NC(=O)c1cc(S(=O)(=O)N(C)C)ccc1Cl)C1CC2CCC1C2 (configuration not stated),i,-0.84
CCOC(=O)C1(CC)NC(c2ccc(N(C)C)cc2)C2C(=O)N(C)C(=O)C21 (configuration not stated),i,1
O=S1(=O)N=C(N2CCCc3ccccc32)c2ccccc21,i,-1.4
COCCn1c(SCC#N)nnc1-c1ccc(OC)cc1,i,-1.4
CCCC(=O)N1CC2(CCC)CN(C(=O)CCC)CC(CCC)(C1)C2=O,i,-0.07
CC(=O)N1CCCc2cc(S(=O)(=O)NCCC3=CCCCC3)ccc21,i,1.9
CC(C)n1cnc2c(Nc3cccc(Cl)c3)nc(N(CCO)CCCO)nc21,i,-1.4
O=C1C2C3C=CC(CNS(=O)(=O)c4ccccc4)(O3)C2C(=O)N1c1ccc(Cl)cc1 (configuration not stated),i,1.2
O=C(O)c1cc2c(ccc3ccccc32)oc1=O,i,-0.72
CCCCNC(=O)CC(=O)Nc1ccccc1C(=O)O,i,0.24
SMILES,KCNQ2 block,KCNQ2 block baseline
O=C(Oc1oc(-c2ccco2)nc1C=Nc1ccccc1)c1ccoc1,i,0.28
Cc1oc2cc(Br)c(O)c(Br)c2c1-c1ccccc1,i,0.03
FC(F)(F)c1ccnc(NCc2ccc(Cl)cc2)n1,i,-0.01
CCOc1cc(C(=O)Nc2nnc(CC)s2)ccc1OCC(=O)N1CCOCC1,i,0.17
CCc1ccc(NC(=O)CSc2nnc(CNC(=O)c3c(F)cccc3Cl)o2)cc1,i,0.65
O=C(COc1cccnc1[N+](=O)[O-])c1c[nH]c2ccccc12,i,-1
Cc1ccc2nc(-c3ccc(NS(=O)(=O)c4ccc(F)cc4)cc3)sc2c1,i,-3
CCOC(=O)c1ccc(NC(=S)NC(=O)c2nn(CC)cc2Br)cc1,i,0.96
Cc1ccc(C)c(NC(=O)CSc2nc3[nH]ncc3c(=O)[nH]2)c1,i,1.7
C/C(=C\C=C(C#N)C#N)c1cc(C#N)c(N)o1,i,5.4
O=C(NCCSc1ccccc1)c1ccc(CN2CCOCC2)cc1,i,-0.99
COc1ccc(OCC(=O)Nc2nc3ccccc3[nH]2)cc1,i,-0.7
O=C(COc1ccccc1)N(Cc1cccs1)C1CCS(=O)(=O)C1 (configuration not stated),i,1.4
CC(C(=O)NCc1cccnc1)c1ccc([N+](=O)[O-])cc1 (configuration not stated),i,-1.6
COc1ccccc1C(=O)NCC(=O)OCC(=O)c1ccc2c(c1)-c1ccccc1C2,i,-0.67

# Some of the compounds tested, so the mix of outcomes need not match the whole.
